Assay outcomes as filed in PubChem BioAssay.
RanGTP-Impb inh: inhibitors of RanGTP-importin-beta interaction, primary screen, biochemical, FRET, CFP-Ran, YFP-importin-beta, homogeneous; cell-free CFP-Ran/YFP-importin-beta FRET ratio; hit rate 1.1% among 300,000; Ran GTPase (GTP-bound) - importin-beta complex; inhibition, % (no concentration beside the values);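 active means most replicates above 15%; inconclusive means exactly half above 15%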;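 further: 0% = DMSO wells and 100% = Ran loaded with GDP instead of GTP; wells of about 40 µL received 100 nL stock; the first replicate is given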
A1 inh: caspase 3/7 activation in MEF A1-2A-BIM cells, primary screen, A1 inhibitor project, cell-based, luminescence, HTS; hit rate 0.066% among 330,000; Caspase-Glo 3/7 luminescence, 3 h; percent of clofoctol response, vehicle zero; caspase activation, % (test concentration not listed);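 active means over half of replicate activation scores above 10%, or exactly half above 10 with the replicate mean above 10; inconclusive means replicate mean below 10 yet half the replicates above 10; inactive means over half of replicates below 10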;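 further: wells of about 30 µL received 50 nL stock; many hits fall short of the cut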
Beta cell apopt: inhibitors of cytokine-induced beta cell apoptosis, primary screen, luminescence | protection from apoptosis, % (no concentration beside the values) | INS-1E cytokine-induced death, ATP luminescence, 48 h; percent of positive-control rescue, neutral wells zero | hit rate 0.8% among 300,000;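 active means all replicates at 75% or more, or half of them and the mean; inconclusive means half reach 75% but not the mean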;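 further: 0% = cytokine-treated negative control wells and 100% = positive control rescue; higher means more ATP so stronger rescue from cytokine killing; wells of about 40 µL received 100 nL stock; the first replicate is given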
AF4-AF9 inh: inhibitors of AF4 peptide binding to AF9, primary screen, biochemical, AlphaScreen, biotin-AF4 peptide, FLAG-AF9, single point; inhibition, % at 10 µM; hit rate 0.47% among 350,000; AID 651704, 2012;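 active means every replicate reaching a set inhibition limit, whatever the replicate mean, cut at about 25% in these data; inconclusive means mean inhibition reaches that limit but some replicates miss it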;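 further: 0% = plate neutral control median and 100% = total signal loss; the record names both 10 and 1 µM as test concentration; the first replicate is given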
Target sequence (P42568 whole entry, looked up): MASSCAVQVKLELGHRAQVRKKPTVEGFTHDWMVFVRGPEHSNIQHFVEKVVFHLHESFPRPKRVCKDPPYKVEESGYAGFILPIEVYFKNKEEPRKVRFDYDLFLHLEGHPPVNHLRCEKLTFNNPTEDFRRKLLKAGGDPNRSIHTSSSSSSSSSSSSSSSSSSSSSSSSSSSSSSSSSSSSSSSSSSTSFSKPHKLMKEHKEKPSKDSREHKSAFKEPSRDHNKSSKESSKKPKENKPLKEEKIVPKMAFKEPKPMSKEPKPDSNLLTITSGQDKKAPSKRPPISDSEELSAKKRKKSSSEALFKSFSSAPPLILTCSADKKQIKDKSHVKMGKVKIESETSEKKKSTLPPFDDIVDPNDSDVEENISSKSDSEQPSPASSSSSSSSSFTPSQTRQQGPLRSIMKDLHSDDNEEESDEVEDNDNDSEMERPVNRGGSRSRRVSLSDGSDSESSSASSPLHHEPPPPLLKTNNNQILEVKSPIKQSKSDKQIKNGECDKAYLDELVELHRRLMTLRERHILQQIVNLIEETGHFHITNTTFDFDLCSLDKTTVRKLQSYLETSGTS
Calb FLC: C. albicans growth inhibition with fluconazole, primary screen, CaCi-2 strain, Alamar Blue fluorescence | C. albicans CaCi-2 (fluconazole-resistant clinical isolate) + fluconazole, 48 h | growth inhibition, % (test concentration not listed) | AID 1979, 2009 | hit rate 0.57% among 300,000;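 active means most replicates above 75%; inconclusive means exactly half above 75%; inactive means most below 75%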;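 further: all wells also contain fluconazole at 8 µg/ml as a sub-toxic cotreatment; 0% = median of DMSO wells and 100% = median of geldanamycin control wells; wells of about 8 µL received 7.5 nL stock; the first replicate is given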
T cruzi inh: inhibitors of intracellular T. cruzi growth, primary screen, luminescence, NIH3T3 host cells. hit rate 1.4% among 300,000. inhibition, % (test concentration not listed). T. cruzi beta-gal in NIH3T3, 90 h. AID 1885, 2009;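 active means mean inhibition across valid replicates above about 55%, limit read from the data; inconclusive means mean below that limit but half or more replicates reach it; inactive means mean below it, under half of replicates reach it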;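 further: signal also drops with host cell toxicity which is not excluded here; 0% = plate median of DMSO wells and 100% = zero luminescence signal; higher percent means less beta-gal luminescence so fewer parasites; stock transfer was 50 nL into about 50 µL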
Vif TR-FRET: inhibitors of Vif binding to APOBEC3G peptide, primary screen, biochemical, TR-FRET, GST-Vif 1-94, biotin-A3G peptide, dose response retest (AID 1117319). inhibition, %, or IC50 in µM where a hit was titrated. Virion infectivity factor (Human immunodeficiency virus type 1 group M subtype B (isolate …. TR-FRET GST-Vif / biotin-A3G peptide binding; higher % means a stronger effect; test concentration not given here; strong numbers were not always called active. hit rate 0.57% among 260,000;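 active means above the screen mean plus three standard deviations and confirmed in dose response; inconclusive means results disagree or hit not tested in dose response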;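 further: Vif residues 1-94 fused to GST binding biotinylated APOBEC3G peptide 110-148; 0% = full assay without inhibitor and 100% = GST in place of GST-Vif; retest series ran down from 100 µM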
Ecoli rRNA inh: reduced GFP signal of wild-type E. coli, primary screen, bacterial rRNA inhibitor project, GFP/RFP fluorescence, OD600, single point | AID 720706, 2013 | E. coli WT GFP vs humanized-ribosome RFP mutants, 24 h; stronger effect = lower value; DMSO median 0, no signal -100 | hit rate 1.6% among 350,000 | GFP signal change (wild-type ribosome), % (test concentration not listed);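 active means significant combined selectivity score with lowered wild-type GFP, culture density cut under 30%, mutant RFP and density less affected; inactive means any of these conditions unmet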; further: one replicate is shown; some compounds called inactive have numbers as strong as hits
Ecoli rRNA inh OD600: recorded beside Ecoli rRNA inh, whose call it bears; OD600 change, %; measured here: OD600 growth;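 optical density of the mix in the first replicate; 0 = DMSO median and -100 = no signal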
Ecoli rRNA inh RFP: second read-out of Ecoli rRNA inh, no call of its own (marks repeat the call); RFP signal change, %; measured here: RFP humanized mutant strains;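 first replicate; 0 = DMSO median and -100 = no signal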
Starred values were filed as active, the others as inactive; ? = inconclusive; · = no result given. The list is partial; count on the stated rates, not on these rows.

SMILES | RanGTP-Impb inh | A1 inh | Beta cell apopt | AF4-AF9 inh | Calb FLC | T cruzi inh | Vif TR-FRET | Ecoli rRNA inh | Ecoli rRNA inh OD600 | Ecoli rRNA inh RFP
Fc1cccc(/C=C2\CCCC3=C2NC(=S)NC3c2cccc(F)c2)c1 (stereo unspecified) | 4.7 | 0.6 | -5.4 | 1.6 | 1.4 | 8.6 | 31.9% | · | · | ·
CNC1=C([N+](=O)[O-])CC([N+](=O)[O-])=C(N2CCNCC2)N1C | 3.1 | -0.2 | -4.0 | -5.3 | -4.1 | -0.8 | · | 9.2 | 12.1 | 1.1
Cn1c(S(=O)(=O)Cc2ccc(Cl)cc2)nc2ccccc21 | -3.1 | 0.4 | -20.6 | -1.6 | -3.7 | -3.3 | · | 13.1 | 10.8 | 4.7
OC(COc1ccc2ccccc2c1Br)Cn1ccnc1 (stereo unspecified) | 2.7 | 3.6 | -1.4 | · | 7.9 | 63.4* | -5.7% | · | · | ·
CC(C)C(C(=O)O)N1C(=O)/C(=C/C=C/c2ccco2)SC1=S (stereo unspecified) | -4.5 | -1.0 | -0.4 | · | 6.8 | 9.1 | 0.36µM* | · | · | ·
O=C(NCc1ccccc1)c1onc(CSc2ccc(F)c(F)c2)c1C(=O)NCc1ccccc1 | 0.8 | -0.8 | · | · | -7.1 | -3.6 | · | · | · | ·
CC(C)c1c(C(=O)N/N=C/c2ccsc2)nnn1-c1nonc1N | 4.5 | -0.4 | -7.2 | 1.7 | 8.9 | -5.1 | · | 3.1 | 3.4 | -4.8
CCOc1ccc(C(=O)Nc2ccc(NC(=O)c3cccs3)cc2)cc1[N+](=O)[O-] | -4.2 | 0.7 | -1.4 | · | 32.9 | -19.1 | 5.0% | · | · | ·
C=CCNc1oc(Cc2cccc3ccccc23)nc1C#N | -2.0 | -0.2 | 10.0 | -3.8 | -0.4 | -1.2 | 18.8% | 2.3 | -1.1 | -0.1
COc1ccccc1CN1CCNC(=O)C1CC(=O)N(C)CC1CCOCC1 (stereo unspecified) | 7.0 | -0.4 | 0.2 | -0.5 | -4.2 | -21.0 | · | 3.4 | 2.7 | -3.6
S=c1nc(-c2ccccc2Br)[nH][nH]1 | ? | 0.1 | 2.2 | -35.2 | 3.8 | -39.5 | · | 0.6 | -2.1 | -1.4
Cc1ccc(S(=O)(=O)N(CC(O)CN2CCCC2)c2ccccc2)cc1 (stereo unspecified) | -6.5 | -0.8 | -7.1 | 7.1 | -0.3 | -16.8 | -0.9% | 9.9 | -6.1 | 24.3
COc1cc(C)c(C(C)C)cc1S(=O)(=O)NC1CC(C)(C)NC(C)(C)C1 | -3.5 | 0.2 | -2.8 | 3.4 | 4.1 | -9.4 | -5.9% | 11.9 | 8.0 | 2.5
Cc1ccccc1-c1nc(-c2ccc(Br)o2)no1 | -0.2 | -3.5 | -1.2 | -1.1 | -5.8 | -11.3 | 3.9% | 26.2 | 7.5 | -2.2
Cc1ccc(NC(=O)C(=Cc2ccc(C(=O)O)cc2)C(=O)Nc2ccc(C)cc2C)c(C)c1 | 3.3 | -0.2 | 71.4 | · | 9.4 | -0.4 | 11.6% | · | · | ·
Cc1cc(C)[n+]2[nH]c(N)c(N=Nc3ccccc3)c2n1 | 3.6 | -0.9 | 1.4 | 4.7 | -1.1 | -15.7 | 16.3% | -28.4* | -2.0* | -7.3*
Cc1ccc(NS(=O)(=O)c2ccc(C(=O)Nc3nncs3)cc2)cc1 | · | 1.0 | -3.4 | -0.2 | · | · | 6.5% | -2.1 | 5.1 | 7.1
O=C(CN1CCc2ccccc2C1)Nc1ccc(F)cc1 | 1.7 | 0.0 | -9.7 | 0.0 | -23.0 | 3.8 | · | 0.4 | 8.2 | 0.2
C=CCn1c(=NC(=O)c2ccc(S(=O)(=O)N3CCCc4ccccc43)cc2)sc2cc(S(N)(=O)=O)ccc21 | -1.9 | -0.2 | 2.3 | · | -9.5 | 45.1 | ? | · | · | ·
COc1ccc(C(=O)CN2C(=O)NC3(CCCCCC3)C2=O)c(OC)c1 | -1.7 | -0.7 | -1.6 | 0.6 | -3.5 | 7.5 | -8.3% | 6.6 | 5.2 | -0.5
COc1ccc(CCNC2CCC(c3ccccc3)CC2)cc1 (stereo unspecified) | 4.2 | -0.1 | -8.8 | -10.9 | -9.9 | 45.5 | 7.5% | -8.8 | -36.5 | 0.9
COc1ccc(-n2cccc2C=O)cc1OC | -2.6 | 1.4 | -0.9 | · | -3.0 | -5.5 | 4.2% | · | · | ·
Cc1cccc(OCC(=O)Nc2ccc3c(c2)nc(CCN2CCC(C)CC2)n3C)c1 | -0.2 | -0.4 | -1.2 | 4.1 | 12.3 | 15.6 | · | -3.0 | 5.1 | 2.5
Cc1cccc(C)c1Nc1nnc(SC/C(O)=C(\C#N)c2nc3ccccc3[nH]2)s1 | 11.1 | -0.1 | 2.4 | -1.3 | -1.0 | 8.0 | 11.3% | -34.3* | -25.4* | -9.3*
O=C(Cn1cnc2ccccc2c1=O)N1CCN(Cc2ccc3c(c2)OCO3)CC1 | ? | -0.6 | -1.6 | · | 2.1 | -18.4 | 1.1% | · | · | ·
O=Cc1coc2ccc3ccccc3c2c1=O | -6.5 | 0.4 | -1.6 | 0.7 | 6.9 | -1.7 | -2.2% | 2.0 | 8.6 | -5.7
CCOC(=O)c1c(C)[nH]c(C(=O)CN2CCN(CC)CC2)c1C | -0.3 | 0.0 | -4.3 | 6.0 | -0.3 | 1.2 | 23.6% | 6.3 | -5.3 | -3.2
Cn1c(=O)n(C)c2cc(S(=O)(=O)Nc3cc(Cl)ccc3O)ccc21 | ? | -0.4 | · | -0.6 | -2.5 | -6.7 | 20.0% | 6.2 | 12.5 | 1.0
CCOc1ccc(NC2=C(Cl)C(=O)N(Cc3ccccc3)C2=O)cc1 | 4.5 | 0.5 | 8.2 | 2.8 | 1.2 | -8.8 | ? | -4.5 | 11.1 | 1.5
Cc1cc(C)n2c(SCc3ccc(Cl)cc3Cl)nnc2n1 | 3.0 | -0.6 | -0.3 | · | 7.7 | 43.1 | 23.5% | · | · | ·
CCOC(=O)C1(CCc2ccccc2)CCN(C(=O)C2CCCO2)CC1 (stereo unspecified) | 1.0 | -0.1 | -6.8 | -3.2 | 2.0 | 6.9 | -9.6% | -3.4 | -9.1 | -0.5
COc1ccc(N2CCN(c3nc4ccc(C)cn4c(=O)c3C=O)CC2)cc1 | 7.1 | -0.4 | -1.5 | -4.5 | 40.5 | 12.9 | 17.0% | -3.2 | 1.1 | 0.1
COc1ccc(C(CC(=O)O)NS(=O)(=O)c2ccc3c(c2)NC(=O)CO3)cc1 (stereo unspecified) | 1.5 | 0.3 | -4.2 | -0.6 | 8.3 | -5.4 | · | 9.3 | 12.4 | -2.7
CSc1cccc(NC(=O)CSc2ccc(C)cc2)c1 | -1.1 | 0.0 | 3.8 | · | -1.6 | 10.5 | -2.3% | · | · | ·
COc1ccc2[nH]c(=O)c(CN(Cc3cccnc3)C(=O)Nc3ccccc3)cc2c1 | ? | -0.4 | -0.2 | · | 8.9 | 10.8 | -5.1% | · | · | ·
COc1ccc(C(CNC(=O)c2cccc(S(=O)(=O)NCc3ccccc3)c2)N2CCOCC2)cc1 (stereo unspecified) | 2.5 | 1.2 | 1.3 | 0.7 | -1.0 | 7.9 | · | -5.4 | -0.6 | -0.1
Nc1nc(SCC(=O)c2ccc(Br)s2)n[nH]1 | 2.3 | -1.2 | · | -2.1 | 6.6 | -10.9 | -6.0% | 9.2 | 6.2 | 3.1
CC(=O)Nc1ccc2c(c1)nc(CN1CCCC1)n2C | 3.4 | -1.2 | -6.4 | · | -2.9 | 3.3 | 0.1% | · | · | ·
CN(C)C(=O)Nc1ccc(F)cc1F | -0.6 | 0.1 | · | · | -29.8 | -20.5 | -0.5% | · | · | ·
CC(C)(C)c1csc(NC(=O)C2COc3ccccc3O2)n1 (stereo unspecified) | -1.8 | 0.1 | · | 0.4 | -4.2 | 3.3 | · | -40.0 | -49.5 | -4.8
COC(c1ccccc1)c1c(-c2ccccc2)nn(C)c1Cl (stereo unspecified) | -4.2 | 0.2 | 2.2 | · | 29.6 | 2.3 | -3.6% | · | · | ·
CCCCn1c(N(CCOC(C)=O)C(C)=O)nc2ccccc21 | 0.5 | 0.0 | 0.0 | · | -10.5 | -10.2 | -0.2% | · | · | ·
Cc1ccc(-n2c([S-])c(C(=O)NC(C)c3ccccc3)[n+]3ccccc23)cc1 (stereo unspecified) | -6.2 | 0.6 | · | 1.6 | -1.5 | 31.7 | 8.6% | 8.0 | 8.0 | -0.4
CN1C(=O)C(=O)/C(=C(/O)c2ccccc2)C1c1ccc([N+](=O)[O-])cc1 (stereo unspecified) | 1.6 | 0.3 | · | -3.5 | 10.0 | -27.4 | · | 8.3 | 5.7 | 4.5
Cc1ccc(C(=O)NC2(C(F)(F)F)NC(=O)N(c3ccc(Cl)cc3)C2=O)cc1 (stereo unspecified) | -1.8 | 0.9 | -6.8 | · | -27.7 | 10.8 | 1.1% | · | · | ·
COC(=O)c1ccc2nc(NC(=O)CSCC(=O)OCC(=O)c3ccccc3)sc2c1 | -3.4 | -0.8 | -5.8 | 1.8 | -20.1 | -14.0 | ? | 5.7 | 8.2 | -3.8
Cc1cc(N2CCC(C)CC2)c(F)cc1[N+](=O)[O-] | -3.4 | 1.1 | 5.4 | · | -0.5 | 3.6 | 6.5% | · | · | ·
CC1CCC(CN2CCN=C2Nc2ccccc2)CC1 (stereo unspecified) | -1.4 | -0.1 | 0.8 | 4.5 | -10.5 | -5.1 | · | 7.4 | 7.6 | 3.8
COc1ccccc1N1CCN(C(=O)CCNS(=O)(=O)c2cc(Br)cnc2N)CC1 | 1.3 | -0.5 | -5.7 | 7.7 | 3.7 | 17.2 | · | -17.4 | -12.8 | 2.8
NC(=O)C1CCN(C(=O)CC2C(=O)NCCN2Cc2cccc(Oc3ccccc3)c2)CC1 (stereo unspecified) | 0.8 | -0.2 | -20.1 | 4.4 | 0.3 | -8.3 | · | 11.1 | 6.9 | 3.9
